# A488 fluor = A488 region autofluorescence; compound autofluorescence, A488 spectral region, dye equivalency; hits give high values; max dye equivalency, M; 0.1% of 59,000 active; active = above 10 nM dye equivalent; inconclusive = 1 to 10 nM; inactive = 1 nM or less; about half of its hits are not listed in these tables;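 further: highest value over a series up to 38 µM; compound alone in buffer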
#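 Spectroscopic profiling in the A488 region: compounds in pH 8.0 Tris (100 mM), 15 min RT, CCD imaging with 480 nm excitation and 540 nm emission; responses normalized against A488 dye standards.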
# Resorufin fluor = compound fluoresces in the resorufin spectral region; max dye-equivalent concentration, M; AID 588; Compound fluorescence, resorufin region 547/598 nm, buffer; hits give high values; 0.04% of 59,000 active; active = above 10 nM dye equivalent; inconclusive = 1 to 10 nM; inactive = 1 nM or less; a few of its hits are not listed in these tables; further: highest value over a series up to 38 µM
#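 Compounds in 100 mM Tris, pH 8.0, incubated 15 min at room temperature, then fluorescence read at 547 nm excitation/598 nm emission. Signal converted to dye-equivalent concentration via an on-plate six-point resorufin standard curve, per compound concentration.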
# A647 autofl = A647 region autofluorescence | max dye-equivalent concentration, M | Compound fluorescence, A647 channel (570/671 nm), Tris buffer | 59,000 tested, under 10 active; active means above 1 µM dye equivalent; inconclusive means 0.1 to 1 µM; inactive means 0.1 µM or less;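 further: values scaled relative to a standard on each plate; highest value over a series up to 38 µM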
#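 Compounds pinned into 100 mM Tris pH 8.0, 15 min at room temperature, then read with 570 nm excitation/671 nm emission filters. Fluorescence normalized to an on-plate six-point Alexa 647 standard curve, giving dye-equivalent concentration per compound concentration.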
# TSHR ag = agonists of human thyroid stimulating hormone receptor; P16473; HEK293-CNG-TSHR cells (CNG channel as cAMP sensor), membrane potential dye, cAMP; Potency, µM (doses to about 57.1 µM), without a hit: at the highest dose activation, usual class: activators; 0.48% of 73,000 active; AID 926; active = well fitted activation curve of enough size with the parental cells flat; inconclusive = any curve in the parental cells; inactive = parental cells flat and receptor cells flat or falling; further: potency means the concentration at half of the fitted maximal effect; % of control where 0% means no effect; weak receptor curves with flat parental cells got no call and are not listed
# Target sequence (P16473 whole entry, looked up): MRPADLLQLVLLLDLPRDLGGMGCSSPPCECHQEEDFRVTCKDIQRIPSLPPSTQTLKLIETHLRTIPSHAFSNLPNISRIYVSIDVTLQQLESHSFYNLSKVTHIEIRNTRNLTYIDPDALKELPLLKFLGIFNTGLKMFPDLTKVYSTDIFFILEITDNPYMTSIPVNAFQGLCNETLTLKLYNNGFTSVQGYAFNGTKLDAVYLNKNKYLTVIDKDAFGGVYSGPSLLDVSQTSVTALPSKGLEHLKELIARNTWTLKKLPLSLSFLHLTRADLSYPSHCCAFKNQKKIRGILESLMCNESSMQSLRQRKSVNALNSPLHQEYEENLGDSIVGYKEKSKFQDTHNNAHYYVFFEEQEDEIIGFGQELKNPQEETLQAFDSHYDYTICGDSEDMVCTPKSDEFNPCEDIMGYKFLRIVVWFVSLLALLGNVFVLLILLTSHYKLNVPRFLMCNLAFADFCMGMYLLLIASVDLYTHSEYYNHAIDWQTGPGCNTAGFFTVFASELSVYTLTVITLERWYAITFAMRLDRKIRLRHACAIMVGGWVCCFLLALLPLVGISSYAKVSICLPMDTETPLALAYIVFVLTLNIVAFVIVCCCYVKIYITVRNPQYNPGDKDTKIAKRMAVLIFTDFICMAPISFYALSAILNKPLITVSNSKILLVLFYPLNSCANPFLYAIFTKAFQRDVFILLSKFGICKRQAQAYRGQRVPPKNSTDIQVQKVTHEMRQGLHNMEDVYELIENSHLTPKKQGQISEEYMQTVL
#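 HEK 293 cells stably expressing TSHR and a modified CNG channel, with CNG-only parental cells as counterscreen, were preloaded 60 min at room temperature with membrane potential dye containing 100 uM RO 20-1724. Compound exposure was 30 min, and depolarization was read as fluorescence at 590 nm.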
# AID923 = qHTS Assay for Allosteric/Competitive Inhibitors of Caspase-1: Spectroscopic Profiling in AFC Spectral Region. compound fluorescence, AFC spectral region (405/520 nm); almost no hit is shown here. Potency, µM (series often up to 57.5 µM), for the others: at the top dose fluorescence increase, actives largely listed as activators. 1.1% of 75,000 active. AID 923, 2007; active means well fitted activation curve with a large enough effect; inconclusive means small, poorly fitted or top-dose-only effect;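 further: potency means the concentration at half of the fitted maximal effect; 0% is about no effect; scaled to a free AFC standard on each plate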
#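 Baseline compound fluorescence (AFC region, 405 nm ex/520 nm em) taken from the intercept of kinetic reads with 50 nM caspase-1 and 5 uM Ac-WEHD-AFC; normalized to an on-plate AFC standard curve; compounds titrated up to 57 uM.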
# Starred values were filed as active, the others as inactive; i = inactive; ? = inconclusive; nt = not tested or not shown; [ ] = another dose, or the depositor's remark. These rows are one share of the data; the hit share may differ from the screen's.
SMILES,A488 fluor,Resorufin fluor,A647 autofl,TSHR ag,AID923
Cc1ccc(S(=O)(=O)N2CCCC2C(=O)Oc2ccccc2)cc1 (stereo not drawn),i,i,1e-09,4%,-1.0%
O=C(O)CCC(=O)c1cccc2ccccc12,i,i,2e-08,2%,-0.4%
Cc1ccc(N(CC(=O)NC2CCC(C)CC2)S(=O)(=O)c2cccnc2)cc1 (stereo not drawn),nt,nt,nt,?,-1.8%
O=C(NCc1ccccn1)C1CCCN(S(=O)(=O)c2ccc(Br)cc2)C1 (stereo not drawn),i,i,1.2e-08,13%,0.3%
Cn1c(SCc2ccccc2Cl)nnc1-c1cnccn1,i,i,1e-09,9%[11.4 µM],7.0%
CCOC(=O)c1c(NC(=O)c2nn(CC)cc2Br)c(C#N)nn1-c1ccccc1,i,i,6.3e-09,nt,-2.1%
CCOCCn1c(CCCO)nc2ccccc21,i,i,8.8e-09,6%,-0.4%
CC(=O)OCC(=O)[C@@]12OC(C)(C)O[C@@H]1C[C@H]1[C@H]3C[C@H](F)C4=CC(=O)C=C[C@@]4(C)[C@]3(F)[C@H](O)C[C@@]12C,i,i,2.6e-09,-6%[25.6 µM],-2.6%[25.7 µM]
COc1cc(N/C(=N/S(=O)(=O)c2ccccc2)c2ccccc2)ncn1,i,i,3.2e-08,10%,-1.0%
Oc1ccccc1-c1nc(NCC2CCCO2)c2ccccc2n1 (stereo not drawn),i,i,1.5e-08,23%,16%
O=C(c1csnn1)N1CCC[C@@]2(CCN(c3ncccn3)C2)C1,i,i,6.9e-09,2%,3.5%
COc1cc(NC(=O)Cn2nnc(-c3ccccc3N)n2)cc(OC)c1,i,i,3.4e-09,-16%,-1.6%
COC(=O)c1ccc(NC(=O)C2CC(=O)N(c3cc(C)ccc3C)C2)cc1 (stereo not drawn),i,i,1.7e-08,-4%,-1.6%
O=C(CCCNS(=O)(=O)c1cccc2nsnc12)NCc1ccccc1,i,i,1.3e-09,7%,-1.1%
COc1ccc(C)cc1NC(=O)CN(c1ccccc1F)S(C)(=O)=O,nt,nt,nt,-4%,-0.7%
COCCn1cnc2c1c(=O)n(CC(=O)c1ccc3c(c1)OCCO3)c(=O)n2Cc1ccccc1,i,i,2.7e-08,13%,2.6%
COC(=O)c1ccc(N2C(=O)CC(N(C)Cc3ccccc3)C2=O)cc1 (stereo not drawn),nt,nt,nt,-1%,1.8%
COc1ccc(C2=CSC3=NCCN23)cc1F,i,i,6.9e-09,5%[11.4 µM],0.8%
COc1cc(C2C(C(=O)c3ccco3)=C(O)C(=O)N2c2cc(C)on2)cc(Br)c1O (stereo not drawn),i,i,1.6e-08,12%,-1.3%
O=C(CC1SC(=Nc2ccccc2)N(CCCO)C1=O)Nc1ccc(Cl)cc1 (stereo not drawn),i,i,2.1e-08,-22%,-0.1%
O=S(=O)(/N=C(/Nc1cc(N2CCOCC2)ncn1)c1ccc(F)cc1)c1ccccc1,i,i,9e-09,0%,0.0%
COCCCn1c(-c2ccc(OC)cc2)nc2nc3ccccc3nc21,i,i,1e-09,4%,12%
CCn1ncc(C(=O)Nc2ccc(S(=O)(=O)N3CCCC3)cc2)c1C,i,i,2.3e-08,-5%,1.3%
CCCC(=O)N(Cc1cc2ccccc2[nH]c1=O)c1ccccc1OC,i,i,2.2e-08,nt,nt
COCCNc1ccnc(-c2ccccc2C)n1,i,i,8.7e-09,10%,1.8%
O=C(c1ccc2c(c1)OCO2)N1CCNc2ccccc2C1,i,i,3.5e-08,11%,0.4%
O=S(=O)(c1ccccc1)N1CCC2(CCCN(Cc3nccs3)C2)CC1,i,i,1e-09,-1%,3.1%
COc1ccc(C2CC(C(F)(F)F)n3nc(C(=O)NCc4c(C)nn(C)c4C)c(Cl)c3N2)cc1 (stereo not drawn),i,i,1.4e-08,6%,-1.6%
CCOC(=O)c1c(CN2CCCCC2)oc2ccc(OC)cc12,i,i,2.3e-09,nt,nt
Cc1cc(C)nc(N(C#N)S(=O)(=O)c2ccccc2)n1,i,i,3e-08,3%,1.8%
CCOC(=O)CCC(=O)c1c(C)oc2ccc(OC)cc12,i,i,1e-09,?,0.8%
c1ccc(Cc2nn3c(COc4ccccc4)nnc3s2)cc1,i,i,1e-09,-2%,0.8%
c1csc(Cc2nc(-c3ccc(-n4cccc4)cc3)no2)c1,nt,nt,nt,?,1.9%
CCN(CC)CC(=O)n1c2c(c3ccccc31)CCCC2,nt,nt,nt,?,-2.5%
COc1ccc2c(c1)C(=O)OC2CC(=O)O (stereo not drawn),i,i,3.5e-08,0%,2.2%
Cc1cccc(C#N)c1NC1=CC(=O)CC(C)(C)C1,i,i,2.9e-08,19%,-0.3%
COc1cccc(-c2cc(C(=O)N3C(C)CCCC3C)no2)c1 (stereo not drawn),i,i,2.3e-08,?,1.4%
Cc1noc(C)c1COc1cccc(C(=O)Nc2ccc(C#N)cc2)c1,i,i,4.8e-08,1%,0.7%
CCSc1nnc(NC(=O)CSc2nccn2-c2cc(C)cc(C)c2)s1,i,i,1.8e-08,10%[11.4 µM],-0.9%
O=C1N(CN2CCC3(CC2)OCCO3)c2ccccc2C12OCCCO2,i,i,2.9e-08,?,-0.1%
NC(=O)C1(N2CCCCC2)CCN(c2nc(-c3ccccc3)cs2)CC1,i,i,7.4e-09,5%,-2.3%
CCC1CCCCN1CC(=O)c1c(C)[nH]c2ccccc12 (stereo not drawn),i,i,2.6e-08,14%,-0.6%
CCCCCCCCCCCCCCC1CO1 (stereo not drawn),nt,nt,nt,2%,1.2%
COC(=O)NC(CC(C)=O)c1cccc(C(F)(F)F)c1 (stereo not drawn),nt,nt,nt,3%[11.4 µM],-4.3%[11.5 µM]
COc1ccc(NC(=O)CN(c2cccc(F)c2)S(C)(=O)=O)cc1OC,i,i,2.8e-08,?,-0.9%
COc1cccc2sc(Nc3nc(-c4ccccn4)cs3)nc12,i,i,2.8e-08,-10%,1.7%
O=C(O)c1ccccc1C1c2ccccc2Oc2ccccc21,i,i,2e-08,4%[11.4 µM],-2.7%[11.5 µM]
O=C(CCCC(=O)N(CC(=O)NC1CCCCC1)Cc1ccco1)Nc1ccccn1,i,i,2.1e-08,?,-1.4%
O=C(CSc1nnnn1Cc1ccccc1)Nc1ccc2c(c1)OCCO2,i,i,1e-09,3.2µM*,-2.8%
CO[C@H]1COC(=O)[C@H](C)NC(=O)C/C=C\[C@@H](C)[C@H](OC)COC(=O)C/C=C\[C@@H]1C,nt,nt,nt,-7%[11.4 µM],-0.3%[11.5 µM]
CCOC(=O)C1=C(CC)OC(N)=C(C#N)C1c1cc(OC)ccc1OC (stereo not drawn),nt,nt,nt,17%,1.6%
c1ccc(-c2noc(CSc3nnnn3-c3ccccc3)n2)cc1,nt,nt,nt,?,4.0%
CCC(=O)NCCNC(=O)c1c(SC)nsc1SC,i,i,1.9e-08,?,1.2%
CC(C)CCn1c(CN2CCOCC2)nc2c1c(=O)n(C)c(=O)n2C,nt,nt,nt,5%,3.9%
CCOC(=O)c1c(-c2cccs2)csc1NC(=O)c1ccco1,i,i,1.6e-09,-2%,-0.2%
Cc1ccc(-c2nnn(CC(=O)O)n2)cc1,i,i,2.8e-09,13%,-1.3%
O=C(CCC(=O)OCC(F)(F)C(F)F)Nc1ccc(Cl)cc1,nt,nt,nt,?,-0.3%
COc1ccc(C2N(c3cc(Cl)ccc3OC)C(=O)C3CCCN32)cc1OC (stereo not drawn),nt,nt,nt,3%,3.7%
CC(=O)c1c(C)[nH]c(C(=O)NCCCN2CCCC2)c1C,i,i,1e-09,-1%,1.2%
COC(=O)C(Nc1nccs1)(OC)C(F)(F)F (stereo not drawn),i,i,1e-09,-4%[11.4 µM],2.9%

# Continued:
SMILES,A488 fluor,Resorufin fluor,A647 autofl,TSHR ag,AID923
Cc1ccc(C(=O)CSc2nnc(CNc3ccc(C)cc3C)n2Cc2ccco2)cc1,i,i,4.8e-09,2%,-0.9%
COc1ccc(C2OC(=O)c3ccccc3S2)cc1 (stereo not drawn),nt,nt,nt,?,-0.5%
CC(=O)OC1CSc2nc3ccccc3n2C1 (stereo not drawn),i,i,1e-09,-5%,-0.6%
CC(=O)c1cccc(NC(=O)Nc2ccc(C(=O)N3CCCC3)cc2)c1,i,i,7.5e-09,-5%,-1.9%
N[C@@H](CNO)C(=O)O,i,i,1e-09,2%[11.4 µM],0.7%[11.5 µM]
COCCOC(=O)C1=C(C)NC(=O)NC1c1cccs1 (stereo not drawn),nt,nt,nt,-1%,3.3%
CC1CCCCC1NC(=O)Cn1[nH]c(=O)c2ccccc2c1=O (stereo not drawn),i,i,7.7e-09,16%,-0.4%
CS(=O)(=O)Nc1ccc(C(=O)NCc2ccccn2)cc1,i,i,1.6e-08,12%,-0.2%
CCc1ccccc1OCC(=O)Nc1ccc(S(N)(=O)=O)cc1,i,i,1e-09,7%,-0.8%
CCOc1ccc(-c2nc(CSc3nncs3)cs2)cc1OC,i,i,1e-09,7%,0.9%
Cc1cc(C)cc(OCc2nnc(SCC(=O)c3ccc(Br)cc3)o2)c1,i,i,3.5e-08,?,0.4%
C=CCNC1=C(Cl)C(=O)N(c2ccccc2Cl)C1=O,i,i,1.9e-08,?,6.9%
CCC1(C)CC(CC(=O)O)(c2ccccc2OC)CCO1 (stereo not drawn),nt,nt,nt,7%,-3.6%
CC(=O)N1CCC2(CC1)CCN(C(=O)Nc1cccc(F)c1)CC2,i,i,2.6e-08,9%,-0.4%
O=C(O)c1ccccc1NS(=O)(=O)c1ccccc1F,nt,nt,nt,2%,-1.2%
COc1cc(OC)cc(-c2nnc(SCC(=O)N3CCCc4ccccc43)o2)c1,i,i,6.2e-09,?,-0.3%
Cc1ccccc1-c1nc2ccccc2c(=O)n1C1CCS(=O)(=O)C1 (stereo not drawn),i,i,1e-09,nt,-0.6%
Cc1cc(C)cc(NC(=O)CSc2nc3c(c(=O)n2C)SC(C)C3)c1 (stereo not drawn),nt,nt,nt,30%,-4.1%
Cc1ccc(O)c(NC(=O)CCCC(=O)O)c1,i,i,2.3e-09,0%,-1.7%
CC(=O)N(O)[C@@H]1c2cc(C#N)ccc2OC(C)(C)[C@H]1O,nt,nt,nt,4%,1.2%
Cc1ccc(C2/C(=C(/O)c3cnn(-c4ccccc4)c3C)C(=O)C(=O)N2CCN2CCOCC2)o1 (stereo not drawn),i,i,2.2e-08,nt,nt
CCOC(=O)c1ccc2c(c1)N(Cc1ccccc1C)C(=O)c1ccccc1S2=O (stereo not drawn),i,i,9.4e-09,?,1.2%
CC(C)(C)n1nnnc1C(c1ccccc1F)N1CCN(C2CCCC2)CC1 (stereo not drawn),i,i,2.2e-09,?,0.4%
COc1ccc(CN2C(=O)c3ccccc3C2C(=O)NCC2CCCO2)c(OC)c1 (stereo not drawn),i,i,3.8e-09,1%,0.5%
CCOC(=O)C1CCN(c2nc(-c3ccccc3)nc3c2oc2ccccc23)CC1,i,i,4.1e-09,nt,-2.3%

# Limited to A647 autofl and Resorufin fluor (two entries from above):
SMILES	A647 autofl	Resorufin fluor
COc1cc(OC)cc(-c2nnc(SCC(=O)N3CCCc4ccccc43)o2)c1	6.2e-09	i
Cc1ccccc1-c1nc2ccccc2c(=O)n1C1CCS(=O)(=O)C1 (stereo not drawn)	1e-09	i

# Screens: PubChem, National Center for Advancing Translational Sciences (NCATS)
